Screens: PubChem BioAssay, several laboratories
Sa ugtP lethal = growth inhibition of S. aureus ugtP deletion strain; growth inhibition, % (test concentration not listed); 0.54% of 330,000 active; S. aureus RN4220 ugtP deletion, OD600 growth, 16 h; some inactives read as strong as hits; AID 1259309;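 active = z-score under -3 and OD600 up to 0.15 on both plates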;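 also: plate controls were untreated wells for no effect and antibiotic for full effect; wells of about 80 µL received 100 nL stock; the first replicate is given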
Mtb hypoxia rep = Mtb hypoxia fluorescent reporter inhibition | M. tuberculosis hypoxia-regulated fluorescent reporter, fluorescence | 0.1% of 300,000 active | fluorescence inhibition, % (no concentration beside the values);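 active = 35 to 45% if threefold the growth effect, above 45% if 1.5-fold the growth effect; inactive = the rest, general growth blockers included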;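 also: wells of about 50 µL received 100 nL stock; 0% = vehicle wells and 100% = reference inhibitor wells; whole bacteria with a GFP reporter of the hypoxia response; strong numbers were not always called active; many hits fall short of the cut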
Autofluor counter = counter-screen for toxin protease inhibitors: compound fluorescence | AID 624483 | 3.1% of 360,000 active | fluorescence intensity (test concentration not listed) | compound autofluorescence counterscreen, microsphere flow cytometry; hits give high values;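 active = at least 3 SD above the mean of all compounds, about 16000 in these data; inconclusive = too few beads counted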;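 also: 100 nL of 1 mM stock went into each well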
PrP UTR inh = inhibition of PrP 5' UTR reporter expression; cell-based PrP 5' UTR mRNA reporter, plate reader; inhibition, % (no concentration beside the values); 0.35% of 340,000 active;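 active = every replicate at 50% or more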;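 also: 0 = median of the neutral control wells; tested in H4 reporter cells; numbers are from one replicate; inactives centre near -14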
BJeLR lethal = kills HRASV12-expressing BJeLR cells. BJeLR (HRASV12) viability, CellTiter-Glo ATP luminescence, 48 h; reference of the scale not given here. inhibition, % (no concentration beside the values). 0.17% of 300,000 active;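 active = replicate mean above 50%; inconclusive = above 50% but judged a plate artefact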;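 also: 50 nL library stock added to about 25 µL; numbers are from one replicate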
Sa RN4220 lethal = S. aureus RN4220 growth inhibition | 0.33% of 330,000 active | OD600, 16 h | inhibition, % (no concentration beside the values) | AID 1259311;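 active = z-score of -3 or lower and OD600 up to 0.18 on both plates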;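 also: plate controls were untreated cells for no effect and reference antibiotic for full effect; stock transfer was 100 nL into about 80 µL; one replicate is shown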
Mtb hypoxia rep growth = recorded beside Mtb hypoxia rep, whose call it bears; growth inhibition, %; measured here: M. tuberculosis growth (absorbance);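 0% = vehicle and 100% = reference antibiotic; read after six days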
The depositor's hits bear a star; ? = inconclusive; . = not tested or not shown.

structure | Sa ugtP lethal | Mtb hypoxia rep | Mtb hypoxia rep growth | Autofluor counter | PrP UTR inh | BJeLR lethal | Sa RN4220 lethal
O=C(COC(=O)C1CCN(S(=O)(=O)c2ccc(Cl)c(C(F)(F)F)c2)CC1)NCc1ccco1 | 14 | -4 | -3 | 4441 | -5 | -8 | 6.0
CCCSc1nc2c(c(=O)[nH]c(=O)n2C)n1CCc1ccccc1 | 3 | . | . | 2811 | -5 | 0 | 3.1
Cc1ccc(NC(=O)COC(=O)c2cccc3c2C(=O)c2ccccc2C3=O)c(C)c1 | 50 | 5 | 3 | 2474 | -16 | 11 | 68
C[C@]12c3[nH]c4ccc(Cl)cc4c3CCN1C(=O)[C@@H](CC(=O)NCc1ccco1)C[C@@H]2C(=O)N1CCCCC1 | -15 | -5 | 8 | 3484 | -4 | . | 3.9
NC(=O)COC(=O)c1cc(S(=O)(=O)N2CCN(c3ccccc3)CC2)ccc1Cl | 7 | 0 | 5 | 2210 | -13 | 6 | 3.7
Nc1nc(COC(=O)C2CC(=O)N(Cc3ccccc3Cl)C2)nc(Nc2ccccc2)n1 (stereo unspecified) | 1 | 13 | 27 | 4924 | -27 | . | 6.8
COc1ccccc1NC(=S)NCc1ccccn1 | -2 | 0 | 2 | 2003 | -6 | -3 | -0.3
Cc1ccc(-c2noc(=O)n2CC(=O)c2ccc(Cl)cc2)cc1 | . | . | . | 4118 | -25 | 1 | .
O=C(O)CC1(CC(=O)Nc2ccc(C(F)(F)F)cc2)CCCC1 | 3 | 2 | -7 | 4111 | -12 | -6 | 3.6
O=C(/C=C/c1ccc(OC(F)F)cc1)Nc1cccc(S(=O)(=O)NC2=NCCCCC2)c1 | 2 | 3 | 0 | 6349 | -23 | -2 | 3.6
Fc1ccc(Nc2nnc(C(F)(F)F)s2)cc1Cl | 31 | -15 | 0 | . | -29 | 18 | 46
Cc1ccc(NC(=O)NNC(=O)c2snnc2C)cc1 | 4 | 3 | 8 | 4560 | -4 | -5 | 2.3
O=C(NCc1ccccn1)c1cccc(NS(=O)(=O)c2ccccc2F)c1 | 1 | 6 | 6 | 1983 | -11 | -3 | 4.1
COc1ccc(OCCCC(=O)NCC(C)C)cc1 | 4 | . | . | 2964 | -28 | -4 | -0.1
O=[N+]([O-])c1ccccc1S(=O)(=O)NCCSCc1ccco1 | 0 | 14 | -3 | 2899 | -6 | . | 7.7
COc1ccc(OC)c(-n2c(-c3ccc(S(C)(=O)=O)cc3)cc(C=O)c2C)c1 | -6 | . | . | 4242 | -11 | -1 | -0.9
COCCNC(=S)NCc1cccs1 | 7 | 6 | 3 | 3499 | 0 | -7 | 4.5
COCc1cc(C)nc(OCC(=O)NN=Cc2ccc(-c3cc([N+](=O)[O-])ccc3Cl)o2)c1C#N | -7 | 5 | 4 | . | . | . | 21
O=C(COC(=O)c1cccnc1Cl)NC12CC3CC(CC(C3)C1)C2 | 3 | -1 | 6 | 3532 | -17 | . | 3.9
N#Cc1ccc(-c2ccc(F)cc2)nc1Oc1ccccc1 | -11 | -10 | -2 | 9942 | -19 | 4 | 1.2
N#Cc1ccc(OCC(=O)Nc2ccncc2)cc1 | 1 | 3 | 5 | 3738 | -14 | -1 | 2.7
CC(C)CC(NC(=O)c1nc[nH]c1C(=O)N(C)Cc1ccccc1)C(=O)OC(C)(C)C (stereo unspecified) | -11 | 16 | 11 | . | . | . | 5.3
Cc1onc(-c2c(Cl)cccc2Cl)c1C(=O)N1CCN(Cc2ccccc2)CC1 | 2 | -15 | -4 | 4479 | -1 | -4 | 3.8
CCOC(=O)c1n[nH]n2c1nc(=O)c1ccccc12 | 16 | -4 | 2 | 6538 | -20 | 2 | 2.4
CC1CCc2cc(F)ccc2N1C(=O)CCC(=O)O (stereo unspecified) | -3 | 7 | 2 | 3190 | -19 | 7 | 4.7
CCOC(=O)c1sc(NC(=S)NC(=O)C2CC2)cc1C | -27 | 13 | 11 | 10677 | -32 | 6 | 4.9
COc1ccc2nccc(C(N)=O)c2c1 | 6 | -14 | 4 | 4379 | -25 | -9 | 1.3
CC1CCN(C(=O)CCN2C(=O)C3C4C=CC(C4)C3C2=O)CC1 (stereo unspecified) | 1 | 3 | -2 | 5770 | 1 | 4 | 2.6
COc1ccc(CCNC(=O)C2CCCN(S(=O)(=O)c3cnc[nH]3)C2)cc1OC (stereo unspecified) | 1 | . | . | 4171 | -9 | 0 | 0.1
COc1ccc(C(=O)NCc2oc(-c3ccccc3)cc2C(=O)O)cc1 | -5 | 3 | -2 | 3320 | -15 | 0 | -13
CC(C)C[C@H](NC(=O)[C@@H]1CCCN1C(=O)[C@@H](N)Cc1ccc(O)cc1)C(=O)NCC(N)=O | . | . | . | 4151 | 84* | -2 | .
COc1ccc2ccccc2c1C=NNC(=O)c1cccnc1 | 1 | 0 | 11 | . | . | . | -0.1
COc1cc(C(=O)NNC(=O)/C=C/c2ccccc2)cc(OC)c1OC | -7 | 2 | 2 | 2929 | -7 | . | -3.6
COc1cc([N+](=O)[O-])ccc1-c1ccc(/C=C2\C(=O)ON=C2c2ccccc2)o1 | 9 | 15 | -4 | 4192 | -9 | . | 15
COC(=O)c1cn(C(=O)c2ccccc2Cl)c2ccccc12 | 9 | 0 | 0 | 2129 | -9 | 4 | -3.0
CC(=O)c1c(C)nc(-c2ccc(OCC(=O)Nc3ccccc3)cc2)n1O | -4 | 8 | 6 | 4647 | -73 | -8 | 1.3
O=C(CSc1cccc2cccnc12)NN=Cc1ccc(F)cc1 | 5 | 6 | -1 | . | . | . | 0.1
CCC(N)C12CC3CC(CC(O)(C3)C1)C2 (stereo unspecified) | 0 | 5 | 9 | 2956 | -9 | -7 | 7.3
CN(C)S(=O)(=O)N1CCN(c2cc(Cl)ccc2Cl)CC1 | 2 | . | . | 2935 | -16 | -1 | 6.0
COc1ccc(/C=C/C(=O)NC(=S)NNC(=O)Cc2cccs2)cc1OC | 1 | . | . | 3527 | -14 | -5 | 14
CCC(C)NC(=O)CNC(=O)Cn1c(C)cc2ccccc2c1=O (stereo unspecified) | -1 | 2 | 6 | 4305 | -11 | -4 | 5.8
CCN(CCNC(=O)C1CCCN(c2ncnc3c2nc2n3CCCCC2)C1)Cc1ccccc1 (stereo unspecified) | 2 | 7 | 2 | . | -23 | 6 | 0.4
CCO[C@@H]1OC(C(=O)O)=C[C@H](c2csc3ccccc23)[C@H]1CCCO | . | . | . | 3160 | -17 | -1 | .
O=C1C2CC=CCC2C(=O)N1c1ccc(NCCc2ccc(Cl)cc2)c([N+](=O)[O-])c1 (stereo unspecified) | 6 | 12 | 5 | 2592 | -12 | 22 | 5.8
O=C(Nc1ccccc1F)n1ncc2cc(Cl)ccc21 | 2 | -11 | -8 | 3251 | -9 | 8 | -4.4
Cc1cc(Br)c(Cl)cc1NC(=O)CN1C(=O)C2C3CC(c4ccccc4)C(C3)C2C1=O (stereo unspecified) | -18 | 10 | 0 | 2531 | -19 | -11 | -0.3
Cc1ccccc1CNC(=O)C(=O)NCC1CCCN1S(=O)(=O)c1cccs1 (stereo unspecified) | 8 | -10 | -9 | 9562 | -38 | 0 | -0.6
CC(C)(C)c1ccc(C(=O)CCC(=O)OCC(=O)NCCc2ccc(S(N)(=O)=O)cc2)cc1 | 4 | 9 | -5 | 3793 | -10 | . | 3.8
Cc1cc(C(=O)NN=C2CC(C)CC(C)(C)C2)c(C)o1 (stereo unspecified) | 1 | 9 | 4 | . | . | . | 3.6
CN1CCN(C(=O)Cc2ccccc2)CC1 | 2 | -2 | 0 | 4479 | -5 | 0 | 2.4

Additional compounds
structure | Sa ugtP lethal | Mtb hypoxia rep | Mtb hypoxia rep growth | Autofluor counter | PrP UTR inh | BJeLR lethal | Sa RN4220 lethal
Cc1ccc(-n2nc(C(=O)NCc3ccc(C)o3)c3c4ccccc4n(C)c3c2=O)cc1 | 6 | 1 | 3 | 3756 | -13 | 0 | 2.5
O=C(N1CCN(c2ccccc2F)CC1)C12CC3CC(CC(C3)C1)C2 | 3 | 12 | 16 | 4355 | -6 | -8 | 1.8
CNS(=O)(=O)c1cccc(C(=O)OCC(=O)N2CC(C)OC(C)C2)c1 (stereo unspecified) | -1 | 8 | 7 | 5501 | 24 | 17 | -0.9
COc1ccc(OC)c2c(C)cc(N3CCCCCC3)nc12 | -3 | 3 | 13 | 3177 | -5 | 16 | 4.1
C/C(CC(=O)Nc1ccc2c(c1)OCCO2)=N\NC(=O)Cc1ccccc1 | . | . | . | 5823 | -11 | -12 | .
O=C(C1CCCN(S(=O)(=O)c2ccc(Br)s2)C1)N1CCCCCC1 (stereo unspecified) | 12 | . | . | 2439 | -17 | 5 | -1.7
CCc1nc(SCC(=O)Nc2ccc([N+](=O)[O-])cc2)n[nH]1 | 6 | -2 | -6 | 6270 | 3 | -7 | 2.7
O=C(c1ccc(-c2ccccc2Cl)o1)N1CCN(S(=O)(=O)c2cccs2)CC1 | 25 | 2 | -2 | 4214 | -31 | 8 | 2.9
C=C(C)Cc1c(C)c(C#N)c2[nH]c3ccccc3n2c1=O | 61 | -8 | -1 | 3696 | -15 | 2 | 72
COc1ccc(C=NNC(=O)C(C)Sc2ccccn2)cc1[N+](=O)[O-] (stereo unspecified) | -2 | 0 | 3 | . | . | . | 2.3
Cc1cccc(-c2noc(-c3ccc(F)cc3)n2)c1 | -2 | 4 | 6 | 9090 | -80 | 0 | 0.2
COc1ccccc1N1CCN(S(=O)(=O)CCNC(=O)c2ccccc2Br)CC1 | -12 | -3 | 4 | 5545 | -13 | 2 | -6.9
CC[C@]12c3[nH]c4cc(-c5ccco5)ccc4c3CCN1C(=O)[C@@H](CC(=O)NCCc1ccccn1)C[C@@H]2C(=O)N1CCN(C(=O)c2ccco2)CC1 | -2 | -4 | 3 | 3843 | -11 | . | 0.7
c1ccc(Cn2nnnc2-c2ccco2)cc1 | -5 | -8 | -3 | 16264* | 0 | -6 | 0.6
Nc1c(-c2ccccc2)c(CSc2nc3ccccc3[nH]2)nn1-c1ccc(C(=O)O)cc1 | 3 | -7 | 7 | 2349 | -17 | -1 | 7.0
Cc1cccc(C)c1NC(=S)N(C)CCc1ccccn1 | 2 | 7 | 2 | 8456 | -20 | 13 | 4.7
Cc1cc(S(=O)(=O)NCC(C)C)ccc1OCC(=O)NCC1CCCO1 (stereo unspecified) | 8 | 10 | 4 | 2167 | 1 | -7 | 1.2
COc1cc(OC)cc(C(=O)Nc2ccccc2C(=O)NC2CC2)c1 | 5 | 9 | 11 | ? | -9 | . | 7.0
O=C1CN(c2ccc(Cl)cc2)C2(CCCCC2)S1 | 9 | 5 | -1 | 2608 | 4 | -2 | 7.8
Cc1noc(C)c1CSc1nnc(-c2ccccc2F)n1CCc1ccccc1 | -5 | . | . | 2892 | -7 | -1 | 15
NC(CC(=O)O)c1ccc(Br)cc1 (stereo unspecified) | 1 | 1 | 7 | 1981 | -8 | -1 | 1.2
Cc1ccc(C)c(N(C)C(=O)c2coc(=O)c3ccccc23)c1 | -1 | 7 | 13 | 10443 | -12 | 2 | 4.8
Cc1ccccc1N1CC(C(=O)N2CCc3ccccc32)CC1=O (stereo unspecified) | 3 | 7 | 5 | 5609 | -8 | 0 | 2.0
COc1ccccc1C(=O)Nc1ccnn1C1CCN(C(=O)c2ccoc2C)CC1 | 11 | 0 | -9 | 4910 | -14 | 2 | 5.9
OCC[C@H]1C[C@H](O)[C@@H](O)[C@]2(CCCCO2)O1 | . | . | . | 3184 | 1 | 1 | .
Cc1ccc(OCC(=O)Nc2nc(-c3ccccn3)cs2)c(C)c1 | -3 | 4 | 6 | . | -10 | -3 | 25
CC1CCN(c2oc(-c3ccc(F)cc3)nc2C#N)CC1 | 6 | 7 | 2 | 2817 | -4 | -4 | 9.9
Cc1cccc(N2CCN(C(=O)COc3cc4oc(=O)cc(C)c4cc3Cl)CC2)c1C | -6 | 2 | 5 | 5093 | -22 | -1 | 3.8
O=S(=O)(c1cc(F)ccc1F)N1CCC2(CC1)OCCN2S(=O)(=O)c1ccccc1 | 18 | -5 | 0 | 4584 | -21 | 9 | 7.8
Nc1[nH]nc2nc3ccccc3cc12 | 7 | 10 | 3 | 4809 | -2 | . | 16
CC(Sc1nnc(-c2ccco2)n1C)C(=O)NC1CCCC1 (stereo unspecified) | 4 | 3 | -1 | 8429 | -38 | . | 2.1
CCOC(=O)CC(=O)CSc1nnc(Cn2c(=O)sc3ccccc32)n1C | 11 | 8 | 6 | 9837 | -8 | -2 | 5.3
O=C1C2C3c4ccccc4C(c4ccccc43)C2C(=O)N1c1cccc2cccnc12 (stereo unspecified) | -12 | 17 | 5 | 9870 | -28 | 0 | 7.8
COC(=O)c1nn(-c2ccc(C)cc2)c2nnc(Cc3ccccc3)c(=O)n12 | 2 | 4 | -1 | 7566 | -15 | 2 | 3.6
